Assay outcomes as filed in PubChem.
HSV replic up: enhancers of HSV replication in host cells, fold increase, host cell viability | maximum fold increase | HSV replication augmentation in cells | 220,000 compounds, 0.005% hits | AID 1956, 2009;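 active = peak rise of 1.5-fold or more in the series; tested in PC3 cells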;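 note: first round at 10 µM; read as green reporter fluorescence; hits show the peak of a series up to 25 µM; 1 = signal of infected wells without compound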
PKD1 kinase inh: inhibitors of human PKD1 kinase, biochemical, fluorescence polarization; Serine/threonine-protein kinase D1 (Homo sapiens), Q15139; PKD1 kinase fluorescence polarization assay; inhibition, %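 (about 10 µM by stock and volumes)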; 200,000 compounds, 0.056% hits; AID 797, 2007;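 active = inhibition of 50% or more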;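 note: controls were vehicle for no effect and a reference inhibitor for full effect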
RGS16-Gao HTS: modulators of RGS16 binding to Galphao, primary screen, biochemical, human proteins, multiplexed bead flow cytometry; 220,000 compounds, 0.38% hits; bead-based flow cytometry RGS16-Galphao binding, fluorescence; actives lie on both sides; Regulator of G-protein signaling 16 (Homo sapiens) + Guanine nucleotide-binding protein …; AID 1441, 2008; binding response (% of control), % at 10 µM;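 active = below 25% or above 175%, edge rows of some plates excepted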;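 note: Galphao activated by GDP with aluminum fluoride before binding; 100% = wells without compound and 0% = beads without RGS; some results beyond the cut were filed as inactive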
Target sequence (O15492 whole entry, looked up): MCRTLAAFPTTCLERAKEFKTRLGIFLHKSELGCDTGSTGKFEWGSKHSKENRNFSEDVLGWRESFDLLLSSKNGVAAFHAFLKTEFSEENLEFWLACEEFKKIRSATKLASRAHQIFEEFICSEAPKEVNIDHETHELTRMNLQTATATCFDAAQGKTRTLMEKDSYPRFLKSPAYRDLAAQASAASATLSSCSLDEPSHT
Target sequence (P09471 whole entry, looked up): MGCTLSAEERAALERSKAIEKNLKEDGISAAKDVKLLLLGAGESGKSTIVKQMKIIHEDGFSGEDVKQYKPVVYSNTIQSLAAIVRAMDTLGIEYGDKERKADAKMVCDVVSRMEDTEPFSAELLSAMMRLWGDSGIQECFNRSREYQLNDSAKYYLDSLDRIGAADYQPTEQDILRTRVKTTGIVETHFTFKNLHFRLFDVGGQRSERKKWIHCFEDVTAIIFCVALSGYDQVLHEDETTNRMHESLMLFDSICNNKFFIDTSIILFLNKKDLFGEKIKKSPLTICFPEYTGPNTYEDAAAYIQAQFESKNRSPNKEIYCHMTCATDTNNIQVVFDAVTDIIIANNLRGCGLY
Insulin prom inh: inhibitors of insulin promoter-driven GFP, primary screen, imaging, TRM-6 cells (human fetal islet line), eGFP reporter, cell count. reporter expression induced with tamoxifen. inhibition, % at 2 µM. 130,000 compounds, 0.9% hits. AID 1273, 2008;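 active = inhibition above the mean plus 3 SD, with well images judged a real hit on visual review, cut at about 60% in these data, passing the limit was not always enough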
GALR2 ag: GALR2 receptor agonists, primary screen, cell-based. activation, %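 (tested at 5 µM)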. GALR2-expressing cells, agonist activation read-out. Galanin receptor type 2 (Homo sapiens), O43603. 140,000 compounds, 0.48% hits;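 active = above mean plus 3 SD of all compounds, about 5% in these data, not always enough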;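 note: 0% = vehicle buffer wells and 100% = reference agonist at full effect; tested in CHO reporter cells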
Target sequence (O43603 whole entry, looked up): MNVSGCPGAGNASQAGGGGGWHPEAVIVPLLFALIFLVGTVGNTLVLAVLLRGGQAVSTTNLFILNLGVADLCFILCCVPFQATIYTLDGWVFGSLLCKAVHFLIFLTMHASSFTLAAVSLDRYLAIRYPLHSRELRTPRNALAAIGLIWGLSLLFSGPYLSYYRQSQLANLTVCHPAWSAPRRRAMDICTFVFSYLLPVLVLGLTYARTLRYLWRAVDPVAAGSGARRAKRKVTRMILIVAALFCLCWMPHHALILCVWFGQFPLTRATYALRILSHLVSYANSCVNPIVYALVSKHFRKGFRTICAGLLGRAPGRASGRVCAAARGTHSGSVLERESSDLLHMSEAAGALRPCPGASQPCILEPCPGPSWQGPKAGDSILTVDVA
Insulin prom inh cell count: recorded beside Insulin prom inh, whose call it bears; normalized cell count, %; measured here: cell count, toxicity; reference of the scale not given here;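 cells exposed to compound for 48 h; stained nuclei by imaging scaled within each plate; lower means fewer cells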
HSV replic up primary fold: recorded beside HSV replic up, whose call it bears; fold increase; compound at 10 µM; measured here: primary screen fold increase 10 uM; tested in PC3 cells;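 GFP signal in the first replicate; 1 = infected wells without compound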
Active calls of the source: *; i = inactive; x = no result given.

SMILES	HSV replic up	HSV replic up primary fold	PKD1 kinase inh	RGS16-Gao HTS	Insulin prom inh	Insulin prom inh cell count	GALR2 ag
N#Cc1ccc(C(c2nnnn2C2CCCC2)N2CCC(Cc3ccccc3)CC2)cc1 (configuration not stated)	i	1	-4	105	-41	59	-0.6
COc1ccc2[nH]c(=O)c(CN(C(C)=O)c3cccc(C)c3)cc2c1	i	0.89	-3	97	x	x	0.0
COCCCNC(=O)C1C2C=CC3(CN(Cc4ccc(C)cc4)C(=O)C13)O2 (configuration not stated)	i	0.95	-9	85	27	57	-1.5
N#CCCCSc1nnc(CSc2nc3ccccc3s2)n1-c1ccccc1	i	0.96	-12	x	x	x	-1.1
Cc1ccc(C)c2[nH]c(=O)c(CN(CC3CCCO3)S(=O)(=O)c3ccc4c(c3)OCCO4)cc12 (configuration not stated)	i	0.85	-14	102	x	x	-2.0
CCOC(=O)c1ccc(NC(=O)CSCC(=O)OCC(=O)c2ccccc2)cc1	i	1	-6	102	38	139	-1.1
CCCc1cc(C(=O)OC)c2ccccc2n1	i	0.95	-11	105	23	98	-0.6
Clc1nnc(N/N=C/c2ccccc2)c2ccccc12	i	0.89	-3	107	58	139	-0.6
CCn1c(CSc2ncccn2)nnc1SCC(=O)N1CCc2ccccc21	x	x	99*	101	-17	143	-2.2
COc1ccc(NC(=O)c2ccc(NCCN3C(=O)CCC3=O)c([N+](=O)[O-])c2)cc1	i	0.93	-1	98	x	x	x
Cn1c(Cn2c(=O)sc3ccccc32)nnc1SCc1ccccc1	i	1.3	7	100	x	x	-0.3
O=C(O)CCNC(=O)c1ccc(NC(=O)Cc2ccc(Cl)cc2)cc1	i	0.95	-10	103	50	190	x
COc1ccc(CN2C(=O)c3ccccc3C2C(=O)NC2CCC(C)CC2)c(OC)c1 (configuration not stated)	i	0.96	10	102	x	x	x
CN(C(=O)c1cccnc1)c1nnc(-c2cccnc2)s1	i	0.98	1	104	x	x	-2.1
O=C(Nc1ccc2c(c1)CCC2)c1cc(S(=O)(=O)Nc2ccc(F)cc2)c(Cl)cc1Cl	i	0.67	-3	104	-18	103	-2.1
Cc1ccc(Cl)cc1NC(=O)c1ccc(CSc2nnnn2C)cc1	i	0.88	1	113	-17	92	-1.5
Cc1cccc(C(=O)N[C@H](C(=O)Nc2cccc(S(=O)(=O)N3CCCC3)c2)C(C)C)c1	i	0.85	x	110	x	x	x
O=C(O)C1C2C=CC3(CN(CC(O)COc4ccccc4)C(=O)C13)O2 (configuration not stated)	i	0.95	12	100	x	x	-1.4
O=c1[nH]ncc(N2CCN(Cc3ccccc3)CC2)c1Cl	i	0.88	3	103	33	145	x
Cc1ccsc1-c1nc(CN(C)C(C2CC2)C2CC2)c(C)o1	i	0.92	-1	109	-7	97	x
COc1cc(-c2nnc(Cn3cc(C(F)(F)F)ccc3=O)o2)cc(OC)c1OC	i	0.96	-4	97	x	x	-1.7
CNc1ccc(Br)cc1C(O)c1ccccc1 (configuration not stated)	i	1.1	x	93	x	x	x
O=c1cc(N2CCCC2)c(-c2ccccc2)n[nH]1	i	1.1	6	105	x	x	x
O=C(Nc1ccc(N2CCOCC2)cc1)NC1CCCCC1	i	0.88	-5	94	x	x	-3.1
O=C(Cc1ccc(-n2c(=O)[nH]c3ccccc3c2=O)cc1)N1CCN(c2ccccc2)CC1	i	0.92	-13	85	x	x	-0.3
Cn1c(SCC(=O)N2CCN(c3ccccc3)CC2)nnc1-c1cc2ccccc2o1	i	0.94	-1	100	35	25	-1.7
COc1ccc(C(=O)Nc2ccc3oc(-c4cccc(Cl)c4)cc(=O)c3c2O)cc1	i	0.96	x	91	x	x	x
CC(C)(C)c1nn2cnnc2n(/N=C/c2cccc3ccccc23)c1=O	i	1	4	101	x	x	1.0
CC(C)(/C=N/NC(=O)CSCc1ccc(Cl)cc1)CCC#N	i	0.92	-3	95	x	x	x
Cc1ccc(N=Cc2cc(Cl)cc(Cl)c2O)nc1	i	1.2	2	107	-7	118	-0.8
COCCn1nnnc1C(c1ccccc1)N1CCN(c2ccccc2)CC1 (configuration not stated)	i	0.86	-4	x	12	123	0.5
Cc1ccc(C(=O)N/N=C/c2cn(Cc3ccccc3)c3ccccc23)cn1	i	0.97	x	97	x	x	x
Nc1ccc(C#Cc2ccccc2)cc1	i	1.2	-5	107	-207	81	-4.4
N=c1sccn1CC(=O)N1CCc2ccccc21	i	0.98	1	114	25	99	-1.7
Cn1c(=O)n(C)c2cc(C(=O)Nc3ccc4c(c3)OCO4)ccc21	i	1	0	99	38	129	-3.0
CCNC(=S)N1CCN(CC)CC1	i	0.85	-6	99	x	x	x
Cc1c(CCOC(=O)CC23CC4CC(CC(C4)C2)C3)sc[n+]1CC(=O)c1ccc(Br)cc1	x	x	8	98	49	123	0.2
O=C1CSC2=NCN(c3ccccc3)CN12	i	0.99	0	106	0	193	-1.0
O=C(c1ccccn1)c1ncc(C(F)(F)F)cc1Cl	i	0.93	2	104	-24	157	0.4
COc1cc(CC(=O)Nc2ncc(C)s2)cc(OC)c1OC	i	1	7	109	11	85	-2.7
CCOC(=O)CSCC(=O)N1N=C(c2cccs2)CC1c1ccc(F)cc1 (configuration not stated)	i	1	9	100	x	x	1.1
Fc1ccc(N2CCN(C(c3cccs3)c3nnnn3CCc3ccccc3)CC2)cc1 (configuration not stated)	i	0.89	-9	105	53	59	-1.4
Clc1ccc(OCc2nn3c(C4CCCCC4)nnc3s2)c(Cl)c1	i	1.1	-1	75	x	x	0.1
Fc1ccc(C2CC(c3cccs3)=NN2C(=S)Nc2ccccc2)cc1 (configuration not stated)	i	1.1	-4	102	x	x	1.6
CC(=O)Nc1nc(N(C)C)nc(N(C)C)n1	i	0.94	-4	28	-33	98	x
Cc1oc2ccc(O)cc2c1C(=O)c1ccc(Cl)cc1	i	0.84	-2	93	-38	104	0.2
O=C(NCCCN1CCN(c2cccc(Cl)c2)CC1)C1(S(=O)(=O)c2ccc(Cl)cc2)CC1	i	0.84	-3	99	-193	84	-0.9
COC(=O)c1cccc(/C=N/NC(N)=S)c1O	i	0.77	x	99	x	x	x
CC1Cc2ccccc2N1C(=O)CO/N=C/c1ccc(OC(F)F)cc1 (configuration not stated)	i	0.89	-10	105	-7	128	-1.5
O=C(O/N=C1\CCCc2ccccc21)c1cccc(Cl)c1	i	0.94	11	87	-9	119	-0.8
COc1ccc(Cl)cc1NC(=S)NCCN1CCOCC1	i	0.92	4	232	x	x	x
CC1(C)CC(NC(=O)C23CCC(C)(C(=O)C2)C3(C)C)CC(C)(C)N1 (configuration not stated)	i	0.9	-11	116	-9	84	-0.7
CC(Sc1nnc(Nc2ccccc2)s1)C(=O)Nc1nc(-c2ccccc2)cs1 (configuration not stated)	i	0.99	1	96	x	x	x
CCN(CCCNC(=O)c1cn(CC)c2ccc(S(=O)(=O)N(C)C)cc2c1=O)c1cccc(C)c1	i	0.72	2	100	-46	77	-0.2
O=C(Nc1ccc(N2CCN(C(=O)c3ccco3)CC2)cc1)c1ccc2c(c1)OCO2	i	0.84	1	97	66	105	-0.5
Cc1cccc(NC(=O)C2CCCN2S(=O)(=O)c2ccc(F)cc2)c1C (configuration not stated)	i	1	1	99	x	x	1.2
CCc1ccc(Nc2ccc(S(=O)(=O)N3CCOCC3)cc2[N+](=O)[O-])cc1	i	1.1	-3	111	x	x	-1.5
COc1ccc(C(=O)NC(=S)NNC(=O)c2c(-c3ccccc3)noc2C)cc1	i	0.86	6	101	7	116	0.5
COc1ccc(S(=O)(=O)N2CCC(C(=O)NCc3ccccn3)CC2)cc1C	i	1	-8	111	6	100	-1.6
O=c1[nH]c(O)c(C=Nc2ccc(Cl)cc2Cl)c(=O)[nH]1	i	0.98	x	103	x	x	x

Laid out differently: five of the compounds above.
Order of results – HSV replic up | HSV replic up primary fold | PKD1 kinase inh | RGS16-Gao HTS | Insulin prom inh | Insulin prom inh cell count | GALR2 ag
O=C1CSC2=NCN(c3ccccc3)CN12
  i | 0.99 | 0 | 106 | 0 | 193 | -1.0
O=C(c1ccccn1)c1ncc(C(F)(F)F)cc1Cl
  i | 0.93 | 2 | 104 | -24 | 157 | 0.4
COc1cc(CC(=O)Nc2ncc(C)s2)cc(OC)c1OC
  i | 1 | 7 | 109 | 11 | 85 | -2.7
CCOC(=O)CSCC(=O)N1N=C(c2cccs2)CC1c1ccc(F)cc1 (configuration not stated)
  i | 1 | 9 | 100 | x | x | 1.1
Fc1ccc(N2CCN(C(c3cccs3)c3nnnn3CCc3ccccc3)CC2)cc1 (configuration not stated)
  i | 0.89 | -9 | 105 | 53 | 59 | -1.4

Just HSV replic up primary fold, GALR2 ag and RGS16-Gao HTS, for some of the entries so far:
SMILES,HSV replic up primary fold,GALR2 ag,RGS16-Gao HTS
O=C(NCCCN1CCN(c2cccc(Cl)c2)CC1)C1(S(=O)(=O)c2ccc(Cl)cc2)CC1,0.84,-0.9,99
COC(=O)c1cccc(/C=N/NC(N)=S)c1O,0.77,x,99
CC1Cc2ccccc2N1C(=O)CO/N=C/c1ccc(OC(F)F)cc1 (configuration not stated),0.89,-1.5,105
O=C(O/N=C1\CCCc2ccccc21)c1cccc(Cl)c1,0.94,-0.8,87
COc1ccc(Cl)cc1NC(=S)NCCN1CCOCC1,0.92,x,232
CC1(C)CC(NC(=O)C23CCC(C)(C(=O)C2)C3(C)C)CC(C)(C)N1 (configuration not stated),0.9,-0.7,116
CC(Sc1nnc(Nc2ccccc2)s1)C(=O)Nc1nc(-c2ccccc2)cs1 (configuration not stated),0.99,x,96

The listing picks up; the five compounds before the break are reprinted first.
SMILES	HSV replic up	HSV replic up primary fold	PKD1 kinase inh	RGS16-Gao HTS	Insulin prom inh	Insulin prom inh cell count	GALR2 ag
Cc1cccc(NC(=O)C2CCCN2S(=O)(=O)c2ccc(F)cc2)c1C (configuration not stated)	i	1	1	99	x	x	1.2
CCc1ccc(Nc2ccc(S(=O)(=O)N3CCOCC3)cc2[N+](=O)[O-])cc1	i	1.1	-3	111	x	x	-1.5
COc1ccc(C(=O)NC(=S)NNC(=O)c2c(-c3ccccc3)noc2C)cc1	i	0.86	6	101	7	116	0.5
COc1ccc(S(=O)(=O)N2CCC(C(=O)NCc3ccccn3)CC2)cc1C	i	1	-8	111	6	100	-1.6
O=c1[nH]c(O)c(C=Nc2ccc(Cl)cc2Cl)c(=O)[nH]1	i	0.98	x	103	x	x	x
O=S(=O)(Nn1cnnc1)c1ccccc1Cl	i	0.98	-3	101	41	107	-2.2
Cc1cc(C)nc(-n2nc(C)c(Oc3ccccc3O)c2C)n1	i	0.92	-11	99	11	137	0.1
CCC(C)(C)c1ccc(Oc2cccc(C(=O)O)c2)cc1	i	1	x	100	x	x	x
CCOc1cc(/C=C2\N=C(C)OC2=O)cc(Br)c1OCC(=O)OC	i	1.2	-3	101	x	x	-4.6
CCN1C(=O)/C(=C2\C=Cc3ccccc3N2CC)OC1=S	i	0.98	1	x	-46	271	0.2
CC(C)=CCN1CCN(Cc2nc(C(C)C)cs2)CC1CCO (configuration not stated)	i	0.78	-2	91	x	x	x
O=c1[nH]c2ccsc2c(=O)n1CCO	i	1	x	85	x	x	x
CCOC(=O)c1ccc(-n2c(C)ccc2C)cc1	i	1	-6	86	21	187	0.0
O=C(CCCSc1nc(-c2ccco2)cc(C(F)(F)F)n1)NCC1CCCO1 (configuration not stated)	i	1.3	-1	101	-128	114	-0.3
